Screening results (PubChem)
KinaseGlo FLuc = Kinase-Glo luciferase inhibition (counter-screen). Kinase-Glo luciferase, ATP luminescence, 8 min. Potency, µM (top dose mostly 38.3 µM), for the others: top-dose activity change, negative = inhibition, usual class: inhibitors. 0.28% of 200,000 active. AID 1379; note: % is set by controls: 0 for no effect and ±100 for the full control effect; nearly all actives have a fitted effect of over 60% in size
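Compounds were added to a substrate mix at pH 7.2 (50 mM imidazole, 10 uM ATP, within the enzyme's linear range), followed by Kinase-Glo detection reagent; luminescence was measured after 8 minutes at ambient temperature.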
RECQ1 helicase = inhibitors of human RECQ1 DNA helicase. RECQ1 DNA unwinding, red fluorescence kinetic read. P46063. 0.54% of 240,000 active. Potency, µM (series often up to 57.3 µM), for inactives: top-dose activity, negative = inhibition, actives largely listed as inhibitors;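 note: plate controls were vehicle for no effect and no enzyme for full effect; nearly all actives have a fitted effect of over 30% in size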
Target sequence (P46063 whole entry, looked up): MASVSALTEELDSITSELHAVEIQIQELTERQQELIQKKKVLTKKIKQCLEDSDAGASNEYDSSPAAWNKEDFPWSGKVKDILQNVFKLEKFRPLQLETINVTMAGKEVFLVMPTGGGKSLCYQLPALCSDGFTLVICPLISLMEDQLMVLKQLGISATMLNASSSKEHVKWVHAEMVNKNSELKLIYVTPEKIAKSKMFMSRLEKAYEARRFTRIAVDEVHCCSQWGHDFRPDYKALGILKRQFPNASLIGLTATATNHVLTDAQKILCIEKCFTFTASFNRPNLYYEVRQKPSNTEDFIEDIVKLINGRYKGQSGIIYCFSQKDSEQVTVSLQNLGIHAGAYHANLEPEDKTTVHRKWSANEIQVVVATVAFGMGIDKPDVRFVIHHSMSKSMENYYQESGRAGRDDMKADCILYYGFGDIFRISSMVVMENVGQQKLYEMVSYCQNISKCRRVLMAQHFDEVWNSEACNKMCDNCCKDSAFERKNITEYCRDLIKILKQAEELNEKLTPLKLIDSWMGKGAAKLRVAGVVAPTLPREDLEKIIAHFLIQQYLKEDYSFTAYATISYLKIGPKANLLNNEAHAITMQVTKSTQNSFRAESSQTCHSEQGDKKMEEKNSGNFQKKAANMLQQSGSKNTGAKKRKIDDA
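RECQ1T1 50 nM; forked duplex (20 bp + 30-nt ss tails) 200 nM, ATP 2 mM final; pH 8.0, 2 mM MgCl2, 2.5 ug/ml poly(dI-dC); 15 min compound preincubation; discontinuous kinetic read over 2 h at RT.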
L3MBTL1 block = L3MBTL1 (human) inhibition; Q9Y468; AlphaScreen L3MBTL1–H3K9me1 peptide binding; Potency, µM (doses to about 57.1 µM), inactives show top-dose activity, negative = inhibition, actives largely listed as inhibitors; 0.66% of 230,000 active; AID 485360; note: % is set by controls: 0 for no effect and ±100 for the full control effect; nearly all actives have a fitted effect of over 60% in size
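L3MBTL1 50 nM + b-AHA-H3(1-15)K9me1 75 nM, 30 min RT; compound added, 30 min RT; streptavidin donor/Ni-chelate acceptor beads 10 ug/mL each final, 30 min RT dark; AlphaScreen read.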
JMJD2E inh = JMJD2E (human) inhibition; Potency, µM (titrated, usually from 57.1 µM), for inactives: top-dose activity change, negative = inhibition, actives largely listed as inhibitors; B2RXH2; 1.6% of 230,000 active; JMJD2E catalytic domain, FDH-coupled NADH fluorescence (FDH is formaldehyde dehydrogenase); active = well fitted inhibition curve with a large enough effect, not every such curve was filed as active; inconclusive = small, poorly fitted or top-dose-only effect, or another doubt; inactive = no such curve, though single readings can be large or run the other way;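 note: 0% = wells with enzyme and -100% = buffer wells without enzyme; nearly all actives have a fitted effect of over 50% in size; many of its hits are not listed in these tables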
Target sequence (B2RXH2 1-337 limits assumed): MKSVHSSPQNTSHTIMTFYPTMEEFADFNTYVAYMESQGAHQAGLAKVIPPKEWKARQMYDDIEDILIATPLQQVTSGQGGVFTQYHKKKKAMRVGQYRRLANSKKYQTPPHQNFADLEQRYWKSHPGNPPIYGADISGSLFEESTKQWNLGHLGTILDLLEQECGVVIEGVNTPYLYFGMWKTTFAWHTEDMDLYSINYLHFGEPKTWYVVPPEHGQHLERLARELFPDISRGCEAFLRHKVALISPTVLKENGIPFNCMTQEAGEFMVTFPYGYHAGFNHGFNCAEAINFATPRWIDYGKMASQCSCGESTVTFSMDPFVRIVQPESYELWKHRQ
Lamin A splicing = modulators of lamin A splicing; 0.01% of 200,000 active; HeLa LMNA splicing GFP/RFP minigene ratio, 48 h; Potency, µM (titrated, usually from 46.1 µM), for inactives: top-dose ratio change, negative = inhibition, actives largely listed as inhibitors; active = well fitted inhibition curve with a large enough effect in the signal ratio, with a control signal flat, not every such curve was filed as active; inconclusive = small, poorly fitted or top-dose-only effect, or effect the other way, or a change in a side signal; the % refers to the signal ratio; note: % is set by controls: 0 for no effect and ±100 for the full control effect
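S3 HeLa stable clones carrying a lamin A-EGFP splicing minigene plus DsRed2 were seeded at 600 cells/well in Opti-MEM with 2% FBS, pin-dosed and incubated 48 h at 37°C. Acumen cytometry (488 nm) gave the GFP/RFP total-intensity ratio.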
Tau fibril ThT = blocks human tau fibril formation measured by thioflavin T; P10636; recombinant tau K18 P301L, heparin-induced fibrillization, ThT fluorescence; Potency, µM (top dose mostly 57.4 µM), inactives show at the highest dose activity, negative = inhibition, hits mostly inhibitors; 2.1% of 270,000 active; AID 1460; note: % is set by controls: 0 for no effect and ±100 for the full control effect; nearly all actives have a fitted effect of over 55% in size
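Using a mix of unlabeled (15 uM) and Alexa 594-labeled (0.24 uM) tau K18 P301L, heparin-triggered fibrillization over 6 hr at 37 C was scored by ThT fluorescence.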
SMN2 splice enh = enhancers of SMN2 splice variant expression | AID 1458 | Potency, µM (series often up to 46.1 µM), for inactives: at the highest dose activity change, positive = activation, hits mostly activators | HEK293 SMN2-luciferase splicing reporter, luminescence, 30-36 h | 2.8% of 210,000 active; note: % of control where 0% means no effect; nearly all actives have a fitted effect of over 55% in size
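qHTS luciferase splicing reporter: luminescence rises when SMN2 exon 7 is included in transfected HEK293 cells. Compound exposure lasted 30-36 h at 37C, with 4.5 mM final sodium butyrate as control, followed by a ONE-Glo read.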
The depositor's hits bear a star; i = inactive; ? = inconclusive; · = not tested or not shown; & = joins results of further samples; ! = not active in a repeat; [ ] = dose if it differs, or a comment. Unless noted, calls come from the whole dose curve; as a rule, active = well fitted curve in the direction sought with a large enough effect; inconclusive = small, poorly fitted or top-dose-only effect, or another doubt; inactive = no such curve, though single readings can be large; an effect the other way counts as inactive or inconclusive. Potency is the fitted concentration of half-maximal effect. An excerpt, so the mix of outcomes need not match the whole.

SMILES	KinaseGlo FLuc	RECQ1 helicase	L3MBTL1 block	JMJD2E inh	Lamin A splicing	Tau fibril ThT	SMN2 splice enh
CCCCN1C(=O)/C(=C/C=C2\SCCN2C)SC1=S	-2%	-13%	?	-10%	·	14µM*	16µM*
COc1nnc(-c2ccc(N3CCOCC3)c(NC(=O)c3ccccc3)c2)c2ccccc12	2%	-3%	·	12%	11%	?	-12%
O=c1[nH]nc(CNc2ccc(Cl)cc2Cl)c2ccccc12	1%	-3%	8%	11%	?	-14%	-26%
CC(=O)c1cc(CN2C(=O)c3ccccc3C2=O)cs1	-6%	-12%	-2%	-5%	8%	4%	5%
COc1cccc2c1c(NC(=O)Nc1ccc(F)cc1F)nn2C	·	1%	-17%	-5%	·	-9%	·
COC(=O)c1ccc(Sc2nnnn2-c2ccccc2)c([N+](=O)[O-])c1	-2%	-13%	-6%	4%	?	?	-23%
COc1cccc(C(=O)COc2cccc(NC(=O)c3cccc([N+](=O)[O-])c3)c2)c1	4%	-10%	-3%	-4%	-7%	?	-43%[inhibitor]
CCOC(=O)C1=NN(C(=O)Nc2cccc(C(F)(F)F)c2)C2C(=O)N(c3cccc(C(F)(F)F)c3)C(=O)C12 (stereo unspecified)	5%	2%	3%	6%	-6%	-1%	-3%
CCN(CC)S(=O)(=O)c1ccc(N2CCOCC2)c(NC(=O)c2cnccn2)c1	2%	-4%	-9%	-7%	13%	-13%	-4%
CC(=O)N(c1ccccc1Cl)S(=O)(=O)c1ccc(Cl)cc1	-1%	-4%	-6%	-27%	-19%[46 µM]	-2%	-17%
CC1CCCCC1NC(=O)c1ccc(CNc2c(N3CCCC3)c(=O)c2=O)cc1 (stereo unspecified)	3%	-1%	-7%	2%	-11%	-8%	5%
O=C(O)c1ccc(S(=O)(=O)c2ccccc2)cc1	-7%	-4%	·	-2%	-9%	-5%	20%
COc1ccc(C2(O)CCN(C(=O)NC3CCCCC3)CC2)cc1	-1%	-3%	-1%	6%	9%	0%	-6%
CCc1cccc(NC(=O)Nc2ccc3c(c2)OCO3)c1	·	-3%	-4%	-6%	·	?	·
CCCC(=O)c1cc(F)c(N2CCN(S(=O)(=O)c3ccccc3)CC2)cc1C	5%	0%	·	7%	?	-11%	-23%
Cc1ccc(Oc2nc3c(c(=O)n(Cc4ccccc4F)c(=O)n3C)n2C)cc1	-1%	-9%	-5%	1%	-10%	-6%	-45%[inhibitor]
CC(CCc1ccccc1)NC(=O)C(=O)NCc1ccccc1 (stereo unspecified)	-2%	-7%	2%	9%	1%	8%	3%
Cc1ccc(S(=O)(=O)N2CCCC(C(=O)N3CCCc4ccccc43)C2)cc1 (stereo unspecified)	·	-5%	3%	2%	?	-8%	·
CCOC(=O)COc1nc(N(C)C)nc(N(C)C)n1	·	-4%	9%	3%	-3%	-3%	·
COC(=O)c1cc(OC)c(OC)c(OC)c1N	0%	-3%	·	?	-1%	-9%	16%
CCOCCCNC(=O)c1ccc(-n2c(=S)[nH]c3ccccc3c2=O)cc1	2%	0%	-3%	5%	·	-4%	10%
CCCCc1oc2c(c(=O)c1C)C(=O)CC(c1ccccc1)C2 (stereo unspecified)	-4%	i	·	3%	6%	-13%	9%
COc1ccc(/C=N/Nc2ncnc3sc(C)c(C)c23)cc1	-1%	-6%	-14%	-9%	?	?	6%
COc1cccc(OC)c1C(=O)Nc1ccc(CN2CCOCC2)cc1	-2%	-13%	-1%	-5%	8%	-3%	10%
COc1cc2c(cc1OC)C(c1cccc(C)c1)CC(=O)N2 (stereo unspecified)	2%	17%	?	0%	·	8%	·
C=CCn1c(SCC(=O)Nc2sccc2C#N)nc2sc(C)c(C)c2c1=O	-3%	-13%	·	4%	10%	5%	4%
COC/C=C/C1=CC2=CC(=O)C(C)(OC(=O)c3cnc4ccccc4n3)C(=O)C2=CN1CCN1CCOCC1 (stereo unspecified)	-3%[7.66 µM]	12%[11.5 µM]	·	13µM*!	7%[9.22 µM]	16µM*	-5%[9.22 µM]
[O-][n+]1c2c(nn1-c1ccccc1)/C(=N/O)CCC2	-3%	i	5%	13%	14%[46 µM]	-14%	17%
C=CCn1c(C(C)NC(=O)c2ccc(C)cc2)n[nH]c1=S (stereo unspecified)	2%	0%	13%	-13%	-3%	-4%	-7%
O=C1CC(c2ccccc2)CC(O)=C1C=NCCc1ccccc1 (stereo unspecified)	-2%	i	1%	-4%	9%[46 µM]	-11%	15%
CCOC(=O)NC(=O)c1cn(Nc2ccccc2)c(=O)[nH]c1=O	·	-7%	14%	0%	27%[46 µM]	2%	·
CN(C)c1nc2c(c(=O)n(C)c(=O)n2C)n1Cc1ccccc1	15%	-7%	-7%	5%	6%	-5%	-23%
CCCCNC(=O)c1ccc2c(=O)n(CCCOCC)c(=S)[nH]c2c1	-2%	0%	4%	9%	1%	-10%	-13%
N#CCc1nc2n(n1)Cc1ccccc1-2	-2%	-15%	3%	2%	-3%	-1%	-3%
COc1cc(NC(=O)CSc2ncnc3scc(-c4ccccc4)c23)c(C(=O)O)cc1OC	1%	i	?	-8%	·	?	20%
CCCCNC(=O)CCn1c(=O)c2ccccc2n(Cc2ccc(Cl)cc2)c1=O	-2%	-3%	7%	1%	-8%	1%	-6%
CC(=O)OCC(COC(C)=O)OC(C)=O	2%	-1%&-8%	8%	1%	?	-2%	8%&7%
CC(OC(=O)c1cc(Cl)ccc1[N+](=O)[O-])C(=O)NC(C)c1ccc(F)cc1 (stereo unspecified)	4%	-3%	-16%	0%	-5%	-3%	?
COCCNC(=O)c1ccccc1NC(=O)Cc1ccccc1	-1%	i	8%	?	·	3%	8%
COc1ccc(CNC(=O)c2cnc3n(c2=O)CCS3)cc1	4%	-1%	6%	-7%	0%	-4%	-12%
O=S(=O)(c1ccc(Cl)s1)N1CCCCC1	0%	-9%	10%	-3%	7%[46 µM]	-4%	·
Cc1noc(NC(=O)c2cccc(Cl)c2Cl)c1C#N	2%	i	12%	-13%	-9%[46 µM]	0%	-5%
c1cncc(CNC2CCCc3ccccc32)c1 (stereo unspecified)	·	i	2%	-1%	-5%	10%	·
Cc1csc(NC(=O)CSc2nnc(NC(=O)C3CC(=O)N(c4ccccc4)C3)s2)n1 (stereo unspecified)	-2%	i	9%	8%	-10%	15%	18%
COc1cc(C(=O)OCCCN2CCOCC2)ccc1O	1%	-11%	6%	0%	14%[46 µM]	5%	·
CCc1cc(CN2CCOCC2)c(NC(=O)c2ccccc2)s1	-9%	-4%	-17%	5%	-5%[9.22 µM]	-4%	-1%
Cc1cc(C)n(-c2ccc(C(=O)OCC(=O)Nc3ccc(Cl)cc3[N+](=O)[O-])cc2)n1	1%	-4%	-14%	-6%	-11%	-17%	-4%
CCOC(=O)c1cc(OC(=O)c2cccc([N+](=O)[O-])c2)n(-c2ccccc2)n1	-3%	5%	·	-5%	-15%	-7%	-6%
O=C(O)c1nn(CC(=O)N2CCCCCC2)c(=O)c2ccccc12	0%	-3%	-8%	4%	17%[9.22 µM]	-13%	2%
COc1cc(OC)c(C2SCCS2)c(OC)c1	-1%	-13%	-12%	0%	2%	-8%	2%

The list continues.
SMILES	KinaseGlo FLuc	RECQ1 helicase	L3MBTL1 block	JMJD2E inh	Lamin A splicing	Tau fibril ThT	SMN2 splice enh
CN(C1CCS(=O)(=O)C1)S(=O)(=O)c1cccc2nsnc12 (stereo unspecified)	-3%	-15%	·	-9%	5%	-14%	1%
O=C(NCc1cccc(Cl)c1)c1cccc(C(F)(F)F)c1	1%	-19%	7%	2%	3%	-2%	-14%
O=C(O)CCCC(=O)N1N=C(c2ccccc2)CC1c1ccc2nccnc2c1 (stereo unspecified)	0%	-2%	16%	11%	-8%	-7%	1%
CCN1CCN(C2=C(Cl)C(=O)N(Cc3ccccc3)C2=O)CC1	4%	i	-18%	5%	-4%	-12%	-1%
CCOC(=O)C(C)Sc1nnc(-c2c[nH]c3ccccc23)n1C (stereo unspecified)	0%	-9%	-4%	12%	-3%	2%	-5%
CC(=O)Nc1ccc(N2C(C(C)=O)=NN(c3ccccc3)C2c2cccs2)cc1 (stereo unspecified)	3%	i	7%	-18%	2%	?	-11%
COc1ccc(C(O)P(=O)(OCC(C)C)OCC(C)C)c(OC)c1 (stereo unspecified)	-1%	-3%	4%	9%	0%	7%	-2%
Cc1onc(-c2ccccc2Cl)c1C(=O)Nc1ncn[nH]1	-1%	0%	4%	8%	-7%	3%	13%
COc1ccccc1NC(=O)CSc1nnc(-c2ccccc2)o1	-2%	-7%	·	-2%	-12%	-8%	14µM*
Cc1ccc(CNC(=O)C(OC(=O)c2ccco2)C(C)C)cc1 (stereo unspecified)	2%	17%	-8%	6%	7%	-4%	-7%

The last two compounds of the section above open the next one.
SMILES	KinaseGlo FLuc	RECQ1 helicase	L3MBTL1 block	JMJD2E inh	Lamin A splicing	Tau fibril ThT	SMN2 splice enh
COc1ccccc1NC(=O)CSc1nnc(-c2ccccc2)o1	-2%	-7%	·	-2%	-12%	-8%	14µM*
Cc1ccc(CNC(=O)C(OC(=O)c2ccco2)C(C)C)cc1 (stereo unspecified)	2%	17%	-8%	6%	7%	-4%	-7%
C/C=C/Cn1c(SC)nc2c1c(=O)[nH]c(=O)n2C	4%	26%	1%	?	1%	-20%	14%
CCCCN1C(=O)C(O)(CC(=O)c2c(C)n[nH]c2C)c2cc(Br)ccc21 (stereo unspecified)	-2%	-5%	0%	6%	4%	-5%	12%
CC12CN3CC(C)(CN(C1)C3c1cc(Br)ccc1O)C2=O (stereo unspecified)	0%	5%	·	12%	5%	0%	8%
CCN(CC(=O)Nc1ccc(NC(C)=O)cc1)C(=O)c1n[nH]c(=O)c2ccccc12	7%	-18%	-5%	6%	-14%[46 µM]	1%	12%

In a second layout: results already given.
> C/C=C/Cn1c(SC)nc2c1c(=O)[nH]c(=O)n2C
  KinaseGlo FLuc: 4% | RECQ1 helicase: 26% | L3MBTL1 block: 1% | JMJD2E inh: ? | Lamin A splicing: 1% | Tau fibril ThT: -20% | SMN2 splice enh: 14%
> CCCCN1C(=O)C(O)(CC(=O)c2c(C)n[nH]c2C)c2cc(Br)ccc21 (stereo unspecified)
  KinaseGlo FLuc: -2% | RECQ1 helicase: -5% | L3MBTL1 block: 0% | JMJD2E inh: 6% | Lamin A splicing: 4% | Tau fibril ThT: -5% | SMN2 splice enh: 12%
